# Compound activity (PubChem)
# KCNQ2 enhance – KCNQ2 (rat) channel potentiation. B-score at 10 µM. AID 2239. 0.54% of 310,000 active. CHO-K1 KCNQ2, FluxOR thallium flux fluorescence; active compounds read high;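 active = fluorescence ratio B-score at least 3 SD of library B-scores, with initial fluorescence B-score within 3 SD, cut at about 5.3 in these data; same plate scores as AID 2156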;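 note: B-score of peak minus minimum over baseline fluorescence ratio after K+ and Tl+ stimulus; positive B-score means potentiation of KCNQ2 with more thallium influx and brighter signal; only the inactives scoring about 0 or higher are listed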
# Target sequence (O88943 whole entry, looked up): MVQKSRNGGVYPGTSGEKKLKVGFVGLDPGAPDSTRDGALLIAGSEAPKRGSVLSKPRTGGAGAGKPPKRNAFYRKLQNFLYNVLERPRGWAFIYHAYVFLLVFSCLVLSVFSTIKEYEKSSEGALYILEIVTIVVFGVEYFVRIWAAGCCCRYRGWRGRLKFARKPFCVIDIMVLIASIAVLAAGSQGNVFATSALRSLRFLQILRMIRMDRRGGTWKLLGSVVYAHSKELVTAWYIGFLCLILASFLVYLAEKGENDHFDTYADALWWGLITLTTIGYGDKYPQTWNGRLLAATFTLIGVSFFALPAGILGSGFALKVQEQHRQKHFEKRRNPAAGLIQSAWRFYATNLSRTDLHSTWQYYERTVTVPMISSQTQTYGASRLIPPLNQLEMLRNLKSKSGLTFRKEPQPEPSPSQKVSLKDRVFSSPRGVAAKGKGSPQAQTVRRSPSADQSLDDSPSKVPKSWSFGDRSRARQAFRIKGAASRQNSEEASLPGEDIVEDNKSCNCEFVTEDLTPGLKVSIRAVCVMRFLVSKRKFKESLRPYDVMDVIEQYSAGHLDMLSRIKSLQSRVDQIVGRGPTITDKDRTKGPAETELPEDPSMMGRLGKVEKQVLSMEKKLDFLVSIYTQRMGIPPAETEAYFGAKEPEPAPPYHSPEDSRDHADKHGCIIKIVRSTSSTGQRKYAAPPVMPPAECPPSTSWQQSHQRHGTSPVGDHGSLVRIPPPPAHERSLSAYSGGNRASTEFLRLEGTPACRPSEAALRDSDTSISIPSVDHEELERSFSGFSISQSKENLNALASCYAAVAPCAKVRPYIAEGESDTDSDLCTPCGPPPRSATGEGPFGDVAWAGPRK
# KCNQ2 enhance baseline – also measured in KCNQ2 enhance; calls as there; B-score; compound at 10 µM; measured here: initial fluorescence intensity artifact check;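 brightness before thallium and not channel activity; 0 = typical well and far values either way flag optical interference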
# * hit, by the source's call. Not all compounds are listed; the hit share may differ from the screen's.
# The line under a structure holds: KCNQ2 enhance	KCNQ2 enhance baseline
c1ccc(-c2ccc(C3=Nn4c(nnc4-c4cc(-c5ccccc5)n[nH]4)SC3)cc2)cc1
 : 2.5	1.8
CCc1[nH]c(=O)[nH]c1C(C)S(=O)(=O)c1ccc(C)cc1 (centres undefined)
 : 1.8	0.07
Cc1cc(NC(=O)Nc2ccc(C)c(C)c2)no1
 : 0.21	-0.09
CC(CCc1ccccc1)NC(=O)c1ccc(Br)o1 (centres undefined)
 : 1.1	3.5
COc1cccc(C(=O)NCCS(=O)(=O)NCCc2ccc(OC)c(OC)c2)c1
 : 0.77	0.75
CN(C)C(=O)CCCc1nc(-c2ccc(Cl)cc2)no1
 : 0.3	-0.22
COC(=O)c1ccccc1Oc1cc(C(F)(F)F)nc(-c2ccccn2)n1
 : 0.97	1.7
O=C(O)CSc1nnc(-c2cccnc2)n1Cc1ccccc1
 : 0.55	0.12
CCOc1ccccc1NC(=O)CC(O)(C(F)(F)F)C(F)(F)F
 : 2.6	-0.9
CC(C)CN(CC(C)C)c1ccc(/C=N/n2cnnc2)cc1[N+](=O)[O-]
 : 0.39	-0.04
COc1ccc(/C=C/C(=O)Oc2ccc(/C=N/NC(=O)c3ccncc3)cc2)cc1
 : 0.25	0.58
Cc1ccnc(N2CCN(c3cc(C)c(C#N)c4nc5ccccc5n34)CC2)c1
 : 0.1	0.11
CCCCCCc1cc2cc(C(=O)Nc3ccccc3)c(=O)oc2cc1O
 : 1.1	-0.45
O=C(c1cc(-c2ccncc2)nc2ccccc12)N1CCN(c2ccc(N3CCOCC3)nn2)CC1
 : 1.3	0.37
COc1cccc(NC(=O)CN(c2cccc(C(F)(F)F)c2)S(C)(=O)=O)c1
 : 0.87	-0.04
O=C(c1cccc(F)c1)N1CCCC(C(=O)N2CCN(c3ccccc3)CC2)C1 (centres undefined)
 : 1.3	-0.38
Cc1noc(C)c1COc1cccc(C(=O)Nc2ccccc2N2CCOCC2)c1
 : 0.08	-0.5
S=C(Nc1ccccc1Cl)Nc1ccc(Cl)cc1Cl
 : 0.18	0.15
Cc1cc(NCCN2CCCCC2)n2c(nc3ccccc32)c1C#N
 : 1	1
O=C(CN1CCOCC1)Nc1ccc2c(c1)OC(F)(F)O2
 : 1.3	-0.27
COc1ccc(C(C)=O)cc1COC(=O)C(CO)NS(=O)(=O)c1ccc(Br)cc1 (centres undefined)
 : 1.8	-1.1
O=c1cc(-c2cccc(F)c2)[nH]c2ccccc12
 : 0.28	0.65
O=S(=O)(Nc1c(O)ccc2ccccc12)c1ccccc1
 : 2.6	-2.2
Nc1cccc(-c2cn3cccnc3n2)c1
 : 0.55	0.34
CCCCCCCCCCCC(=O)NC1CCS(=O)(=O)C1 (centres undefined)
 : 0.98	1.8
Cc1c(N(C)C(=O)c2ccc3c(c2)OCO3)c(=O)n(-c2ccccc2)n1C
 : 0.01	-0.39
O=C(CCN1C(=O)C2C3C=CC(C3)C2C1=O)Nc1ccc2c(c1)OCO2 (centres undefined)
 : 1.5	-2.7
O=C(CCNC(=O)c1ccc([N+](=O)[O-])cc1)Nc1ccc(F)cc1
 : 0.19	0.16
Cn1ccc(=NC=C(C#N)C#N)c2ccccc21
 : 1.7	-0.15
CC(C)CC(NC(=O)C(NC(=O)OC(C)(C)C)C(C)C)C(N)=O (centres undefined)
 : 0.44	-0.29
N#Cc1cc(-c2ccccc2)oc1NC(=O)c1ccco1
 : 0.15	0.27
CCCSc1nc(C)cc(C)c1C(N)=O
 : 0.28	1.3
Cc1cccc(C)c1Nc1nnc(SCC(=O)Nc2ncc(C(F)(F)F)cc2Cl)s1
 : 1.1	1.4
Cc1ccc(NC(=O)CCNS(=O)(=O)c2cccs2)cc1F
 : 1.6	-0.75
CNCc1sccc1C
 : 0.57	-0.12
O=C(C1=C(O)C(=O)N(CCN2CCOCC2)C1c1cccc(Br)c1)c1cc2ccccc2o1 (centres undefined)
 : 0.22	0.63
O=C(COC(=O)CNC(=O)c1cccs1)Nc1ccccc1C(F)(F)F
 : 0.22	1.2
CCc1nnc(NC(=O)CCC(=O)N2CCN(c3ccccn3)CC2)s1
 : 0.7	0.49
O=C(Cc1ccc(Cl)cc1)NCC(=O)N1CCN(Cc2ccccc2)CC1
 : 1.8	-0.01
CCOC(=O)c1c(NS(=O)(=O)c2cccc(OC)c2)sc2c1CCC2
 : 3.7	2.4
Cc1ccc(S(=O)(=O)N2CCN(C(=O)CC(C)(C)C)CC2)cc1
 : 0.21	-0.54
COC(=O)C1=C(c2ccc(OC)cc2)OC(=O)C1(C)C
 : 1.6	1.1
COc1ccccc1-c1c(C(F)(F)F)oc2c(CN(C)C)c(O)ccc2c1=O
 : 0.35	-0.22
CCC1Sc2ccc(S(=O)(=O)N3CCN(c4ccccc4)CC3)cc2NC1=O (centres undefined)
 : 0.79	0.14
Cn1cc(S(=O)(=O)Nc2ccc(F)cc2F)c(=O)n(C)c1=O
 : 0.93	0.24
Cc1nc(C)c(C(=O)NCCC(c2ccccc2)c2ccccc2)o1
 : 0.17	1.5
Cc1cc(Cl)c(S(=O)(=O)Nc2ccc(Cl)cn2)cc1OCC(N)=O
 : 0.5	-0.22
Cc1cccc(Cn2nc(C(C)(C)C)cc2C(=O)N2CCOCC2)c1
 : 0.79	1.2
COc1ccc(C(=O)CSc2nnc3ccccn23)cc1OC
 : 0.59	0.1
c1ccc2c(c1)CC1(CCCCC1)n1nnnc1-2
 : 0.17	0.29
O=C(NC12CC3CC(CC(C3)C1)C2)C1=COCCO1
 : 0.35	-0.13
Cc1ccc(CO/N=C/C2=C(Cl)c3ccccc3CC2)cc1
 : 0.61	-1.9
O=C(CN1CCC(NC(=O)C2CC2)CC1)Nc1cccc(F)c1
 : 0.41	-0.35
Cc1ccc(C(=O)N2CCCCCC2)cc1S(=O)(=O)Nc1ccccc1
 : 1.1	-1
O=C1CCC([N+](=O)[O-])C(C2CC=CCC2)N1 (centres undefined)
 : 0.27	-0.41
CCC(=O)NC1(C(F)(F)F)C(=O)NC(C)=C1C#N (centres undefined)
 : 0.33	-0.02
Cc1ccc(NC(=O)CS(=O)CC(=O)N(C2CCCC2)C(C)C(=O)NC2CCCCC2)cc1 (centres undefined)
 : 0.59	-1.2
CC1CCC(n2c(=S)[nH]c3ccccc3c2=O)CC1 (centres undefined)
 : 11*	-0.03*
O=C(NCCCCc1ccccc1)c1ccccc1Br
 : 0.05	0.94
COc1ccc(CNC(=O)COc2cc3c(c4oc(=O)cc(C)c24)CCC(C)(C)O3)cc1
 : 3.2	-0.52

# 2 of the compounds above, in CSV form.
SMILES,KCNQ2 enhance,KCNQ2 enhance baseline
O=C(CN1CCC(NC(=O)C2CC2)CC1)Nc1cccc(F)c1,0.41,-0.35
O=C(C1=C(O)C(=O)N(CCN2CCOCC2)C1c1cccc(Br)c1)c1cc2ccccc2o1 (centres undefined),0.22,0.63

# (further entries)
# The line under a structure holds: KCNQ2 enhance	KCNQ2 enhance baseline
Cc1ccc(CNC(=O)C2CCC(CNc3nc(=S)[nH]c4ccccc34)CC2)cc1 (centres undefined)
 : 0.01	0.71
CCc1ccc(N(CC(=O)NCc2ccco2)C(=O)CCC(=O)Nc2nccs2)cc1
 : 0.25	1.7
Cc1ccc(Cn2cc(-c3ccccc3)nn2)cc1
 : 0.15	-0.9
CC(C)c1ccc(C(=O)Nc2nnc(S(=O)(=O)N3CCCCC3)s2)cc1
 : 1.2	0.4
CSc1cc(C)nc(NC(C)=O)n1
 : 0.31	-1.1
O=C(CCCOc1ccc(Cl)cc1)Nc1nncs1
 : 1.2	0.09
Cc1ccnc2nc(C(=O)OCC(=O)Nc3ccc4c(c3)OC(F)(F)O4)nn12
 : 0.86	-0.89
CS(=O)(=O)N1CCC(C(=O)Nc2ccc(Oc3ccccc3)cc2)CC1
 : 0.44	1.8
CCNC(=S)N1CCN(Cc2ccccc2)CC1
 : 0.92	-0.44
CCCCn1cnc2c(c1=O)c1nc3ccccc3nc1n2Cc1ccc2c(c1)OCO2
 : 0.45	-0.26
COc1ccc(C(=O)NCS(=O)(=O)c2ccc(C)cc2)cc1
 : 1.3	0.14
COc1ccc(NC(=O)CN2CCCN(S(=O)(=O)c3ccc(F)cc3)CC2)cc1
 : 0.88	-0.2
Cc1nnc(SCC(=O)NCc2ccccc2Cl)n(N)c1=O
 : 0.91	-0.72
COc1ccc(S(=O)(=O)Nc2nc3ccccc3s2)cc1
 : 0.18	0.84
C=CCNCCOCCOc1ccc(C)cc1[N+](=O)[O-]
 : 0.32	0.3
Cc1nn(C(C)C(=O)Nc2ccc(Cl)cn2)c(C)c1[N+](=O)[O-] (centres undefined)
 : 1.9	-1.2
CCOC(=O)CN(C(=O)CSc1nnc(CNc2ccc(F)cc2)n1C)c1ccccc1
 : 0.03	1.8
COc1ccc(C)cc1S(=O)(=O)Nc1ccccc1C
 : 0.51	-0.34
C/C(=N\NC(=O)c1ccc(Cl)cc1)c1cccc(NC(=O)c2cccnc2)c1
 : 0.01	-0.05
Cc1cc(OC(=O)c2ccccc2Br)c([N+](=O)[O-])c(=O)[nH]1
 : 0.14	0.93
O=[N+]([O-])c1cc(S(=O)(=O)Nc2ccccc2)ccc1N1CCN(c2ccc(O)cc2)CC1
 : 0.01	-0.48
Cc1cccc(OCCn2cc(/C=N/NC(=O)c3ccncc3)c3ccccc32)c1
 : 0.03	-0.07
S=C(NCCc1ccccc1)N1CCCC1
 : 1.2	1.1
O=C1c2ccc(Oc3ccc4c(c3)C(=O)N(CCCCO)C4=O)cc2C(=O)N1CCCCO
 : 0.74	0.49
COc1ccc(C2(c3ccc(OC)cc3)NC(=O)N(CC(=O)NC(C)C)C2=O)cc1
 : 0.01	-0.27
CCOc1cccc(C(=O)Nc2ccncc2)c1
 : 0.94	0.53
Cc1nnc(-c2ccccc2)[nH]c1=O
 : 1.2	0.75
O=C(C(=O)N1CCN(c2ccc([N+](=O)[O-])cc2)CC1)c1cn(CC(=O)N2CCOCC2)c2ccccc12
 : 0.11	-0.9
COc1cc2c(C(=O)N3CCN(C)CC3)c(CSc3ccccc3)n(C)c2cc1Br
 : 5.3*	-1.6*
CCCNC(=O)c1ccc(Cl)c(Cl)c1
 : 0.53	-0.02

# Whole records as entered above. Values in the order: KCNQ2 enhance, KCNQ2 enhance baseline
# Cc1ccc(Cn2cc(-c3ccccc3)nn2)cc1 reads 0.15, -0.9
# CCOC(=O)CN(C(=O)CSc1nnc(CNc2ccc(F)cc2)n1C)c1ccccc1 reads 0.03, 1.8
# N#Cc1cc(-c2ccccc2)oc1NC(=O)c1ccco1 reads 0.15, 0.27
# CCCCCCc1cc2cc(C(=O)Nc3ccccc3)c(=O)oc2cc1O reads 1.1, -0.45

# Following part.
# The line under a structure holds: KCNQ2 enhance	KCNQ2 enhance baseline
Cc1ccc(NC(=O)CCNC(=O)c2ccccc2Cl)cc1S(=O)(=O)N(C)C
 : 0.19	0.28
COc1ccc(-c2[nH]nc3c2C(c2ccccc2OC(=O)N2CCOCC2)C(C#N)=C(N)O3)cc1 (centres undefined)
 : 0.35	-0.83
Cc1cc(=O)oc2cc(OCC(=O)OCC(=O)NC(=O)NC(C)C)ccc12
 : 0.31	0
O=C(COC(=O)CCS(=O)(=O)c1ccccc1)Nc1cc(S(=O)(=O)N2CCCCC2)ccc1Cl
 : 0.69	-0.23
O=C(CSc1nncc2ccccc12)N1CCOCC1
 : 0.79	0.21
Cc1ccn2cc(CNC(=O)c3cccs3)nc2c1
 : 1.6	-0.49
CC(=O)c1sc(-c2ccc(F)cc2)cc1NS(=O)(=O)c1ccccc1
 : 0.92	3.3
CC(Oc1ccc(F)cc1)C(=O)Oc1ccc(N(C)S(=O)(=O)c2ccccc2)cc1 (centres undefined)
 : 0.73	-1.4
O=C(Nc1ccc(S(=O)(=O)N2CCCCC2)cc1)C1CCN(C(=O)c2ccco2)CC1
 : 1	-2.2
CC(C)[C@H](NS(=O)(=O)c1ccccc1)C(=O)OCn1nnc2ccccc2c1=O
 : 0.11	0.3
Cc1sc2ncnc(SCC(=O)N3CCCCC3)c2c1C
 : 2.5	-0.48
COC(=O)c1onc(-c2ccccc2)c1C(=O)OC
 : 1.5	1.4
Cc1ccc(NC(=O)/C(=C/c2cccc([N+](=O)[O-])c2)NC(=O)C2CCCCC2)cc1
 : 0.49	-2.4
COc1ccccc1/C=N/Nc1cc(C)nc(N2CCOCC2)n1
 : 0.05	-0.84
O=C(COc1ccccc1)NCC(=O)N/N=C/c1ccc(O)cc1O
 : 1.3	0.09
Cc1ccc(OC(C)C(=O)Nc2cc(C)on2)cc1 (centres undefined)
 : 1.1	-1.6
COc1ccc(NC(=O)CCCCC#Cc2ccccc2)cc1
 : 1.2	-1.9
Cc1cc(NC(=O)CO/N=C/c2ccc3c(c2)OCO3)ccc1Br
 : 0.02	1.6
CCCC(c1nnnn1Cc1ccc(F)cc1)N1CCN(C)CC1 (centres undefined)
 : 0.04	-1.4
CC(NC(=O)COC(=O)Cn1cnc2ccccc2c1=O)C1CC2CCC1C2 (centres undefined)
 : 0.06	0.73
Cn1nc(C(=O)N2CCN(C(c3ccccc3)c3ccccc3)CC2)c2ccccc2c1=O
 : 0.63	-0.9
CCN1CCN(CCCN(Cc2ccco2)C(=S)Nc2cccc(Cl)c2C)CC1
 : 2.1	-0.43
COc1ccccc1CCC(=O)Nc1ccc2c(c1)CN(CCCn1cccn1)CC2
 : 0.08	-0.17
Cc1c(C)c2c(OCC(=O)NCc3ccccn3)cc3c(c2oc1=O)CCC(C)(C)O3
 : 0.15	-0.7
Cc1ccc(CSCC(=O)Nc2ccccc2)cc1
 : 0.02	-0.48
NNC(=O)c1cccc(COc2ccccc2Br)c1
 : 1.5	0.54
Cc1ccc(NC(=O)Cc2ccc([N+](=O)[O-])cc2)c(Br)c1
 : 1.4	-2.5
COc1cc(/C=N/N2C(C)CCCC2C)cc(Br)c1O (centres undefined)
 : 1.3	-0.29
CCOC(=O)C1=NN(C(=O)c2ccc(C)cc2)C(O)(c2ccc(Cl)cc2)C1 (centres undefined)
 : 25*	0.26*
COc1cc(NC(=O)CCS(=O)(=O)c2ccc3c(c2)oc(=O)n3C)cc(OC)c1
 : 0.31	0.02
